miR-21 FLuc: miR-21 reporter, rising signal. 340,000 tested, under 10 active. HeLa miR-21 FLuc reporter, luciferase, 48 h. Potency, µM (doses to about 38.3 µM), without a hit: at the top dose reporter change, positive = more light; active = well fitted rising curve with a large enough effect; inconclusive = small, poorly fitted or top-dose-only effect; inactive = no such curve, though single readings can be large or run the other way;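 also: % of control where 0% means no effect; miR-21 action dims this reporter so a rising signal means less miR-21 action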
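Compounds were titrated across several concentrations (up to approximately 40 uM) and incubated 48 hours with HeLa miR-21-FLuc reporter cells (miR-21 target sequence downstream of FLuc, endogenous miR-21). Readout was firefly luciferase luminescence after lytic detection reagent.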
An asterisk follows results filed as active.

`CCOc1ccc(NC(=O)Nc2cc3c(cc2N2CCCCC2)n(C)c(=O)n3C)cc1` gave miR-21 FLuc 22%.
`CN(C)c1ccc(NC(=O)CC(NCc2cccnc2)C(=O)O)cc1` (stereo not drawn) gave miR-21 FLuc 2%.
Screening NC(=O)C1CCN(C(=O)c2ccc3c(c2)N(Cc2cccc(Cl)c2)C(=O)c2ccccc2S3=O)CC1 (stereo not drawn) returned miR-21 FLuc -7%.
Screening COc1cccc(C(=O)Nc2ccc(C(=O)OCc3cc(=O)n4nc(C5CC5)sc4n3)cc2)c1 returned miR-21 FLuc 3%.
For COc1cc2c(cc1NC(=O)COc1ccc(Br)c(C)c1)oc1ccccc12 the results were miR-21 FLuc 4%.
Screening COc1ccc(S(=O)(=O)c2c(O)c3ccc(C(=O)NCc4ccc(Cl)cc4)cc3[nH]c2=O)cc1 returned miR-21 FLuc -1%.
Screening CCn1cnc2c(=O)oc3ccc(S(=O)(=O)Nc4ccc(OC)cc4)cc3c21 returned miR-21 FLuc 0%.
`Cc1ccc(C)c(Cn2c(=O)n(C(C)C)c(=O)c3oc4ccccc4c32)c1` gave miR-21 FLuc -1%.
`CCOc1ccc(/C=C/c2nc(C#N)c(NC3CCCCC3)o2)cc1` gave miR-21 FLuc 3%.
For CC(C)(C)NS(=O)(=O)c1ccc2nc(NC(=O)c3cccnc3)sc2c1 the results were miR-21 FLuc -17%.
`COC(=O)c1ccccc1NC(=O)c1nn(-c2ccc(OC)cc2)c(=O)c2c1c1ccccc1n2C` gave miR-21 FLuc 1%.
Cc1ccc(S(=O)(=O)c2nc(-c3ccccc3Cl)oc2N2CCCCCC2)cc1 was read as miR-21 FLuc 17%.
Cc1ccc(N(C)C(=O)c2cc(S(=O)(=O)N3CCOCC3)cn2C)cc1 was read as miR-21 FLuc 19%.
COc1ccccc1CCNC(=O)CCc1c(C)c2cc3c(C)coc3c(C)c2oc1=O was read as miR-21 FLuc 0%.
Screening Cc1ccc(S(=O)(=O)C(CNC(=O)COc2ccccc2)c2cccs2)cc1 (stereo not drawn) returned miR-21 FLuc -7%.
`COc1ccc(-c2oc3ncn4nc(-c5ccccc5C)nc4c3c2-c2ccc(OC)cc2)cc1` gave miR-21 FLuc 0%.
Screening Cc1cccc(C(=O)Nc2cc3c(cc2C)n(C)c(=O)n3C)c1 returned miR-21 FLuc 1%.
For Cc1ccc(-c2ccc(=O)n(CCC(=O)NCCc3ccccc3)n2)cc1 the results were miR-21 FLuc -21%.
Cc1cc(=O)c2cc(C(=O)Nc3ccccc3)ccc2[nH]1 was read as miR-21 FLuc -20%.
For CCCSCCCNC(=O)c1ccc(Cn2c(=O)c3cccn3c3cccnc32)cc1 the results were miR-21 FLuc -5%.
For Cc1cc(Nc2cccc(C)c2C)n2cnnc2n1 the results were miR-21 FLuc -14%.
Screening COc1ccc(N(Cc2cccs2)C(=O)COc2ccc([N+](=O)[O-])cc2)cc1 returned miR-21 FLuc 17%.
Screening CCSc1ncc(Cl)c(C(=O)Nc2c(C(=O)Nc3ccccc3)oc3ccccc23)n1 returned miR-21 FLuc 4%.
Screening COc1ccccc1Cn1ccn(Cc2c(F)cccc2Cl)c(=O)c1=O returned miR-21 FLuc 21%.
For Cc1cn2c(=O)cc(COc3ccc(NC(=O)c4cccc(F)c4)cc3)nc2s1 the results were miR-21 FLuc 2%.
Cc1oc(-c2cccc(Br)c2)nc1Cn1c(=O)cc(-c2ccccc2)c2c(C)nn(C)c21 was read as miR-21 FLuc 3%.
For CCOc1ccccc1NC(=O)CN1C(=O)COc2ccc(S(=O)(=O)N3CCCCC3)cc21 the results were miR-21 FLuc -3%.
`CC(=O)c1cc(-c2ccc(F)cc2)n(CCC(=O)Nc2nc3ccc(C)cc3s2)c1C` gave miR-21 FLuc 16%.
`COc1ccc2c(C)cc(SCC(=O)Nc3nsc(-c4ccccc4C)n3)nc2c1` gave miR-21 FLuc -5%.
Screening COc1ccc(-c2cc(C(=O)NCCc3ccccc3)c3c(-c4ccccc4)[nH]nc3n2)cc1OC returned miR-21 FLuc -29%.
Screening COC(=O)c1ccc(NC(=O)C2CCN(S(=O)(=O)c3ccc4c(c3)CCCN4C(C)=O)CC2)cc1 returned miR-21 FLuc 9%.
For COC(=O)c1scc(-c2ccc(C)cc2)c1S(=O)(=O)N1CCN(c2ccccc2F)CC1 the results were miR-21 FLuc 1%.
`COc1ccc(C(=O)COC(=O)c2cc(-c3cccs3)nc3ccccc23)cc1` gave miR-21 FLuc -43%.
Screening CCCN(CCC)c1cc(C)nc2nc(-c3ccc(Cl)cc3)nn12 returned miR-21 FLuc 0%.
`CCOc1ccccc1NC(=O)CN1C(=O)C(=O)c2ccccc21` gave miR-21 FLuc 2%.
For COc1ccc(NC(C)=O)cc1NC(=O)CN1CCN(c2ccc(F)cc2)CC1 the results were miR-21 FLuc -5%.
For O=C(NCc1ccc(Cl)cc1)C1CCN(S(=O)(=O)c2ccc3c(c2)CCCN3C(=O)C2CCC2)CC1 the results were miR-21 FLuc 29%.
Screening COc1ccc(C(=O)NCCSc2c[nH]c3ccccc23)cc1OC returned miR-21 FLuc 10%.
For Fc1ccc(-c2cc(-c3ccc(F)cc3)c3c(n2)-c2cc(F)ccc2OC3)cc1 the results were miR-21 FLuc -5%.
Screening CC(CCCc1ccccc1)NC(=O)c1nn(-c2ccc(Cl)cc2)nc1CO (stereo not drawn) returned miR-21 FLuc 22%.
For CCCCNc1nc(Oc2ccc(OCC(N)=O)nn2)nc(N2CCOCC2)n1 the results were miR-21 FLuc -3%.
For COc1ccc(NC(=O)c2ccc3c(c2)N(Cc2cccc(Cl)c2)C(=O)c2ccccc2S3(=O)=O)cc1Cl the results were miR-21 FLuc 0%.
Screening CCN1CCN(c2oc(-c3ccc(COc4ccc(OC)cc4)o3)nc2C#N)CC1 returned miR-21 FLuc 11%.
For Cc1ccc(Cn2nc3n(c2=O)-c2cc(Cl)ccc2OC3)cc1 the results were miR-21 FLuc -5%.
CCn1cc(C(=O)NCc2ccccc2)c(=O)c2cc(S(=O)(=O)N3CCCCC3)ccc21 was read as miR-21 FLuc -6%.
`CCCNC(=O)CN1CCN(c2ncc(NC(=O)c3ccc(Cl)cc3)cc2C(=O)O)CC1` gave miR-21 FLuc -5%.
`COc1ccc(OC)c(C2CC(=O)N(c3cccc(C)c3)C3=C2C(=O)OC3)c1` (stereo not drawn) gave miR-21 FLuc -9%.
Screening CCOc1ccc(-n2nc3ccc(NC(=O)COc4ccc(OC)cc4)cc3n2)cc1 returned miR-21 FLuc 12%.
Screening CC(C)(C)OC(=O)N1CCC(c2c(C(=O)NCc3cccc(Cl)c3)cnn2-c2ccc(F)cc2)CC1 returned miR-21 FLuc inconclusive.
For C#CCn1c(COc2ccccc2C)nc2ccccc21 the results were miR-21 FLuc -62%.
COc1ccc(N(C(=O)/C=C\C(=O)Nc2ccc(C)cc2)C(C(=O)NCc2ccco2)c2ccc(C)cc2)cc1 (stereo not drawn) was read as miR-21 FLuc 23%.
For Cc1ccc(S(=O)(=O)N2CCCc3cc(NS(=O)(=O)c4ccccc4)ccc32)cc1 the results were miR-21 FLuc 2%.
Screening COc1ccc(-c2[nH]c(-c3ccc(Cl)cc3)nc2SCC(=O)NCC2CCCO2)cc1 (stereo not drawn) returned miR-21 FLuc 18%.
Screening CC(C)(C)c1cc(C(C)(C)C)c2oc(=O)c(-c3nc4ccc(C(=O)O)cc4[nH]3)cc2c1 returned miR-21 FLuc -3%.
`CCc1ccc(NC(=O)Cn2c(=O)n(CCCC(=O)NCc3ccccc3OC)c(=O)c3ccccc32)cc1` gave miR-21 FLuc -1%.
CCc1ccccc1NC(=O)Cn1c(=O)n(Cc2ccccc2)c(=O)c2c(C)c(C(=O)N(C)C)sc21 was read as miR-21 FLuc 12%.
For CCOc1ccccc1NC(=O)CSc1nc2c(sc3ccccc32)c(=O)n1CCCC(=O)NC1CCCC1 the results were miR-21 FLuc -2%.
`Cc1ccc(S(=O)(=O)N(Cc2nc(-c3ccc(Cl)cc3)no2)C2CCCCC2)cc1` gave miR-21 FLuc 1%.
For COc1ccc(CNC(=O)c2ccc3c(c2)N(Cc2ccc(C)cc2)CCS3)cc1 the results were miR-21 FLuc -7%.
For CCOC(=O)c1cccc(Nc2cc(C)nc(C)n2)c1 the results were miR-21 FLuc -53%.

5 consecutive records already listed, quoted:
CCc1ccccc1NC(=O)Cn1c(=O)n(Cc2ccccc2)c(=O)c2c(C)c(C(=O)N(C)C)sc21 was read as miR-21 FLuc 12%.
For CCOc1ccccc1NC(=O)CSc1nc2c(sc3ccccc32)c(=O)n1CCCC(=O)NC1CCCC1 the results were miR-21 FLuc -2%.
`Cc1ccc(S(=O)(=O)N(Cc2nc(-c3ccc(Cl)cc3)no2)C2CCCCC2)cc1` gave miR-21 FLuc 1%.
For COc1ccc(CNC(=O)c2ccc3c(c2)N(Cc2ccc(C)cc2)CCS3)cc1 the results were miR-21 FLuc -7%.
For CCOC(=O)c1cccc(Nc2cc(C)nc(C)n2)c1 the results were miR-21 FLuc -53%.

Further entries follow.
Cc1ccc(C)c(NC(=O)C(c2ccccc2)N2Cc3ccccc3C2=O)c1 (stereo not drawn) was read as miR-21 FLuc 1%.
CCOc1ccc(NC(=O)Nc2c[nH]c(=O)[nH]c2=O)cc1 was read as miR-21 FLuc -3%.
`COc1ccc(N2Cc3cccc(C(=O)Nc4ccc(Cl)cc4)c3C2=O)cc1` gave miR-21 FLuc 0%.
For Cc1ccc(-c2nnc(Nc3ccc(C(N)=O)cc3)c3ccccc23)cc1S(N)(=O)=O the results were miR-21 FLuc 3%.
CC(=O)Nc1cccc(-c2cn3cccnc3n2)c1 was read as miR-21 FLuc -5%.
For CCc1noc(-c2ccc(N3CCCCC3)c([N+](=O)[O-])c2)n1 the results were miR-21 FLuc -15%.
`COc1ccc(Br)cc1CNC(=O)CN1CCSc2ccccc21` gave miR-21 FLuc 8%.
Screening CCN(CC)c1ccc(NC(=O)c2cnn3c(C(F)F)cc(-c4ccccc4)nc23)cc1 returned miR-21 FLuc -17%.
`CCOC(=O)c1c(NC(=O)CSc2cn(CCNC(=O)c3ccccc3OC)c3ccccc23)sc2c1CCCC2` gave miR-21 FLuc 25%.
`CCCn1c(NCc2ccccc2C)nc2ccccc21` gave miR-21 FLuc 19%.
`CCOC(=O)c1c(C)oc2nc(C)nc(N3CCN(c4ccc(C)cc4C)CC3)c12` gave miR-21 FLuc -1%.
`CN(C)CCCN(C(=O)c1ccc(S(=O)(=O)N2CCCc3ccccc32)cc1)c1nc2ccc(F)cc2s1` gave miR-21 FLuc 3%.

Filtered by structure, the entries above containing bromine
For COc1cc2c(cc1NC(=O)COc1ccc(Br)c(C)c1)oc1ccccc12 the results were miR-21 FLuc 4%.
Cc1oc(-c2cccc(Br)c2)nc1Cn1c(=O)cc(-c2ccccc2)c2c(C)nn(C)c21 was read as miR-21 FLuc 3%.
`COc1ccc(Br)cc1CNC(=O)CN1CCSc2ccccc21` gave miR-21 FLuc 8%.

Continued:
For COCc1nnc(NC(=O)c2cc(OC)c(OC)c(OC)c2)s1 the results were miR-21 FLuc 2%.
Screening Cc1oc(-c2ccc(Cl)cc2)nc1CN1CCCC(C(=O)NCc2ccc(Cl)cc2)C1 (stereo not drawn) returned miR-21 FLuc 3%.
For Cc1nnsc1C(=O)Oc1ccc(Cl)cc1 the results were miR-21 FLuc 0%.
Cc1nc2c3cccnc3nn2c(C)c1CCC(=O)NCc1ccccc1 was read as miR-21 FLuc -1%.
`Cc1ccc(CNC(=O)CN2C(=O)COc3ccc(S(=O)(=O)Nc4ccccc4)cc32)cc1` gave miR-21 FLuc -3%.
`COc1ccc(-c2[nH]c(-c3ccccc3)nc2SCC(=O)Nc2ccc3c(c2)OCCO3)cc1` gave miR-21 FLuc 29%.
`COc1ccc(C)c2sc(N(Cc3cccnc3)C(=O)c3cccs3)nc12` gave miR-21 FLuc -1%.
CCCN(CCC)C(=O)Cn1c(=O)n(-c2ccc(Cl)cc2)c(=O)c2c3c(sc21)CCCC3 was read as miR-21 FLuc -1%.
Screening Cc1ccc2nc(CNC(=O)c3ccccc3)[nH]c2c1 returned miR-21 FLuc -70%.
For CCOC(=O)c1c(NC(=O)c2cc(=O)c3c(C)cc(C)cc3o2)sc2c1CCC2 the results were miR-21 FLuc -2%.
`COc1ccc(OCC2c3cc(OC)c(OC)cc3CCN2C(=O)COc2ccc(Cl)cc2Cl)cc1` (stereo not drawn) gave miR-21 FLuc 5%.
Screening Cc1c(NC(=O)c2ccccc2F)cccc1-c1nc2cccnc2s1 returned miR-21 FLuc 22%.
Cc1ccc(-n2c(-c3ccc(Br)cc3)nc3c(cnn3-c3ccccc3)c2=O)cc1 was read as miR-21 FLuc 4%.
For Cc1ccc(-c2cc3nc(-c4ccccc4)cc(C(F)(F)F)n3n2)cc1 the results were miR-21 FLuc -11%.
`CCOc1ccccc1CNC(=O)C1CCCN(c2ncnc3onc(-c4ccc(F)cc4)c23)C1` (stereo not drawn) gave miR-21 FLuc 0%.
Cc1ccc(Cl)cc1NC(=O)c1cc(S(=O)(=O)N2CCCCCC2)cn1C was read as miR-21 FLuc 9%.
For COc1ccc(CNC(=O)CCc2nc3cccnc3n2Cc2ccccc2)cc1 the results were miR-21 FLuc 2%.
`COc1cc(CN(C(=O)c2ccc(OC(C)C)cc2)C2CCS(=O)(=O)C2)cc(OC)c1OC` (stereo not drawn) gave miR-21 FLuc -6%.
Screening Cc1coc2cc3oc(=O)c(CC(=O)NCc4cccc(Cl)c4)c(C)c3cc12 returned miR-21 FLuc 24%.

Not all compounds are listed; rates above refer to the full screens.
